# Screening data as filed in PubChem BioAssay.
# Vaccinia mCherry – inhibitors of vaccinia virus infection (mCherry reporter signal); Vaccinia virus mCherry reporter infection, fluorescence; about a quarter of the inactives have no number; Potency, µM (top dose mostly 36.5 µM), for inactives: at the top dose activity change, negative = inhibition, most hits filed as inhibitors; hit rate 0.63% among 310,000; AID 720579; active = well fitted inhibition curve with a large enough effect; inconclusive = small, poorly fitted or top-dose-only effect; inactive = no such curve, though single readings can be large or run the other way; tested in A549 cells; also: nearly all actives have a fitted effect of over 35% in size; inactives centre near -10
# Vaccinia Venus – inhibitors of vaccinia virus (Venus reporter); Vaccinia virus Venus reporter expression, fluorescence; Potency, µM (doses to about 36.5 µM), for the others: top-dose activity change, negative = inhibition, most hits filed as inhibitors; hit rate 0.46% among 330,000; AID 720580; active means well fitted inhibition curve with a large enough effect; inconclusive means small, poorly fitted or top-dose-only effect; inactive means no such curve, though single readings can be large or run the other way; tested in A549 cells; also: nearly all actives have a fitted effect of over 30% in size; inactives centre near -10
# Starred values were filed as active, the others as inactive; i = inactive; ? = inconclusive; nt = no result given; & = joins results of further samples; [ ] = dose if it differs, or a comment. % is scaled to controls: 0 for no effect and ±100 for the full control effect; potency is read from the fitted curve at half-maximal effect.
[1] C[C@@H]1CC=C[C@H]2[C@H]1C(=O)N(Cc1ccccc1)[C@H]2c1ccc(F)c(/C=C/c2ccccc2)c1
[2] O=C(Nc1ccccc1C(=O)O)c1ccc2c(c1)C(=O)N(c1cccc([N+](=O)[O-])c1)C2=O
[3] O=C(CCN1C(=O)c2ccccc2Sc2ncccc21)Nc1ccc(F)cc1F
[4] Cc1ccc(CNC(=O)c2ccc(N3CCC4(CC3)CC(c3ccccc3)=NO4)c(NC(=O)c3ccc(Cl)c([N+](=O)[O-])c3)c2)cc1
[5] CCn1cc(C(=O)NCc2ccco2)c(=O)c2cc(S(=O)(=O)N3CCC(C)CC3)ccc21

screen / no.,1,2,3,4,5
Vaccinia mCherry,i,-29%,-21%,i,?
Vaccinia Venus,-20%,-10%,-12%,1%,?

# Pulled by compound from above (two):
[1] C[C@@H]1CC=C[C@H]2[C@H]1C(=O)N(Cc1ccccc1)[C@H]2c1ccc(F)c(/C=C/c2ccccc2)c1
[5] CCn1cc(C(=O)NCc2ccco2)c(=O)c2cc(S(=O)(=O)N3CCC(C)CC3)ccc21

screen / no.,1,5
Vaccinia mCherry,i,?
Vaccinia Venus,-20%,?

# (listing goes on)
[6] O=C(CC1SC(=Nc2ccc(OC(F)F)cc2)N(CCN2CCOCC2)C1=O)Nc1ccc(F)cc1F (centres undefined)
[7] COc1ccc(CCNC(=O)CCc2cn(Cc3ccc(C)cc3)c3ccccc23)cc1OC
[8] COc1ccc(CNC(=O)COC(=O)c2c[nH]c(=O)[nH]c2=O)cc1OC
[9] O=C(NCc1ccccn1)C1CCN(S(=O)(=O)c2ccccc2)CC1
[10] Cc1ccc(C)c(N2CCN(C(=O)c3cc4c(=O)n(Cc5cccnc5)ccc4nc3C)CC2)c1

screen / no.,6,7,8,9,10
Vaccinia mCherry,i,-8%,nt,-14%,-21%
Vaccinia Venus,-18%,-9%,-7%,-8%,-7%

[11] Cc1ccc2cc(CN(CC3CCCO3)S(=O)(=O)c3ccccc3)c3nnnn3c2c1 (centres undefined)
[12] CC1CCN(CC(O)COc2ccc(F)cc2)CC1 (centres undefined)
[13] CCC1CCCCN1C(=O)CSc1nnc(-c2ccc(Cl)s2)o1 (centres undefined)
[14] Cc1cc(C)nc(N2CCC(C(=O)NCCc3ccc(F)cc3)CC2)n1
[15] NC(=O)C1(N2CCCCC2)CCN(C(=O)Nc2ccc(F)cc2)CC1

screen / no.,11,12,13,14,15
Vaccinia mCherry,-15%,24%,nt,i,-5%
Vaccinia Venus,-12%,-2%,-27%,-8%,-1%

[16] O=S(=O)(Nc1ccc(F)cc1)c1ccc(S(=O)(=O)N2CCOCC2)cc1
[17] COCCCNC(=O)c1cc(S(=O)(=O)NCCCN2CCCC2=O)ccc1Cl
[18] CS(=O)(=O)N1CCC(C(=O)N2CCN(c3ccccc3)CC2)CC1
[19] CC(C)(C)OC(=O)N(Cc1ccccc1)Cc1ccccc1OCc1cccc(NC(=O)C2CCC2)c1
[20] COc1ccc2oc(C(=O)OCC(=O)N(C)C3CCS(=O)(=O)C3)c(C)c2c1 (centres undefined)

screen / no.,16,17,18,19,20
Vaccinia mCherry,-10%,i,i,-10%,-5%
Vaccinia Venus,-4%,-5%,-5%,-18%,-13%

[21] COCCCn1cc(CN2CC(N(C)C)CS2(=O)=O)nn1 (centres undefined)
[22] Cc1ccccc1CCNC(=O)C1CCN(c2nc3ccccc3nc2C(F)(F)F)CC1
[23] O=C(/C=C/c1ccccc1F)c1cccc([N+](=O)[O-])c1
[24] CCOc1ccccc1NC(=O)COC(=O)COc1cccc2c1OC(C)(C)C2
[25] Cc1nn(C)c(C)c1Nc1ccc(N2C(=O)C3CC=CCC3C2=O)cc1[N+](=O)[O-] (centres undefined)

screen / no.,21,22,23,24,25
Vaccinia mCherry,-3%,-9%,-8%,i,i
Vaccinia Venus,0%,-13%,-1%,-2%,2%

[26] CCc1cccc(-n2nnc(-c3nsc(NC(=O)c4ccc(C)cc4)n3)c2C)c1
[27] Cn1cnc2c(=O)oc3ccc(S(=O)(=O)N4CCN(c5cccc(Cl)c5)CC4)cc3c21
[28] COc1ccc(Cl)cc1NC(=O)c1cn(C2CCCC2)c(=O)c2c1c1ccccc1n2C
[29] COc1ccc(C(=O)NCC(C)(c2ccccc2)c2ccccc2)cc1S(=O)(=O)N1CCOCC1
[30] Cc1ccc(-c2noc(CCC(=O)NCCN3CCN(Cc4ccccc4)CC3)n2)cc1

screen / no.,26,27,28,29,30
Vaccinia mCherry,-12%,-5%,-20%,-22%,nt
Vaccinia Venus,-26%,1%,-22%,-17%,?

[31] O=C(CCCN1CCC(c2ccccc2)C1)c1ccc2c(c1)OCCO2 (centres undefined)
[32] Cc1ccc(C(C(=O)NC2CCCC2)N(Cc2ccc3c(c2)OCO3)C(=O)Cc2cccs2)cc1 (centres undefined)
[33] CCc1ccccc1NC(=O)c1cnc2scc(C)n2c1=O
[34] COc1ccccc1OCC(=O)NCC1(N(C)C)CCCCC1
[35] O=C(O)Cn1c(=O)c2c(c3ccccc31)CCC2

screen / no.,31,32,33,34,35
Vaccinia mCherry,-9%,nt,?,-12%,-11%
Vaccinia Venus,-6%,-16%,-10%,-7%,3%

[36] COc1ccc(CCC(C)N2CCC(Oc3ccc(C(=O)N4CCCC4)cc3)CC2)cc1 (centres undefined)
[37] Cc1cc(C)c2c(N)c(C(=O)c3ccccc3Cl)sc2n1
[38] CN1CCN(C(=S)C(=O)Nc2ccccc2)CC1
[39] Cc1ccc2cc3cc(C(=O)N4CCC5(CC4)OCCO5)oc3nc2c1
[40] CCOC(=O)c1nnc(-c2ccc(C)cc2)nc1Oc1ccccc1Cl

screen / no.,36,37,38,39,40
Vaccinia mCherry,-1%,10%,1%,-3%,nt
Vaccinia Venus,-22%,-1%,-8%,-11%,-23%

[41] COc1ccc(NC(=O)CSc2ccc3c(c2)OCCO3)cc1S(N)(=O)=O
[42] COC(=O)[C@@H]1C[C@H]2CC[C@H](O)C[C@H]2N1Cc1ccc(-c2ccccc2)cc1
[43] O=C(c1ccc(COCC(F)(F)F)o1)N1CCCCCC1
[44] O=C(CSc1nc2ccccc2c(=O)n1-c1ccc(Cl)cc1)c1ccco1
[45] CCOc1ccc(NC(=O)Cn2nnc(C(=O)NCc3ccccc3OC)c2N)cc1

screen / no.,41,42,43,44,45
Vaccinia mCherry,-12%,-23%,nt,-3%,-20%
Vaccinia Venus,4%,4%,-11%,-18%,-13%

# One compound at a time, from the list above. Order of values: Vaccinia mCherry | Vaccinia Venus
# `O=C(c1ccc(COCC(F)(F)F)o1)N1CCCCCC1` is entered as nt | -11%
# `COc1ccc(CCC(C)N2CCC(Oc3ccc(C(=O)N4CCCC4)cc3)CC2)cc1` (centres undefined) is entered as -1% | -22%
# `CCn1cc(C(=O)NCc2ccco2)c(=O)c2cc(S(=O)(=O)N3CCC(C)CC3)ccc21` is entered as ? | ?
# `Cc1cc(C)nc(N2CCC(C(=O)NCCc3ccc(F)cc3)CC2)n1` is entered as i | -8%

# More records follow.
[46] CCc1cc(Cn2nc(-c3ccccc3)cc2C(=O)NCc2cccc(C(F)(F)F)c2)on1
[47] NCCCCN
[48] COc1cc(/C=C(\C#N)c2nc3ccc(C)cc3[nH]2)c([N+](=O)[O-])cc1OC
[49] CC(NC(=O)c1ccc2c(c1)sc1nc(-c3ccccc3)cn12)C12CC3CC(CC(C3)C1)C2 (centres undefined)
[50] CCOc1ccc(NC(=O)Cn2nc3c(cc2=O)CC(C)CC3)cc1 (centres undefined)

screen / no.,46,47,48,49,50
Vaccinia mCherry,i,-11%,-27%,0%,-15%
Vaccinia Venus,-9%,-16%,-23%,-12%,-13%

[51] COc1ccc(OC)c(N(C(=O)c2snc(C(N)=O)c2N)C(C(=O)NCC2CCCO2)c2ccc3ncccc3c2)c1 (centres undefined)
[52] COCCNc1nc2nonc2nc1N(C)Cc1cccc2cnccc12
[53] CCOc1ccccc1/C=C/c1onc(C)c1S(=O)(=O)N1CCC(C(=O)NC(C)C)CC1
[54] CC(=O)CCS(=O)(=O)c1ccc(C)c(C)c1
[55] Cn1c(=O)oc2cc(S(=O)(=O)CCC(=O)N3CCN(c4ccccc4)CC3)ccc21

screen / no.,51,52,53,54,55
Vaccinia mCherry,-9%,-9%,i[7.34 µM],-13%,3%
Vaccinia Venus,-16%,-7%,-19%[7.34 µM],-4%,1%&10%

[56] O=[N+]([O-])c1cc(Br)c2c(c1)CCN2
[57] COc1ccc(O)c(/C=N/N2CCOCC2)c1
[58] CSc1ccccc1C(=O)Nc1cc([N+](=O)[O-])ccc1C
[59] O=C(c1ccccc1)n1nc(-c2ccc(Cl)cc2)nc1NCc1ccco1
[60] C=CCn1c(=NC(=O)c2cc(-c3cccs3)nc3ccccc23)sc2cc(S(N)(=O)=O)ccc21

screen / no.,56,57,58,59,60
Vaccinia mCherry,-3%,-18%,-8%,i,?
Vaccinia Venus,-2%,-10%,-8%,-8%,-24%

[61] CCOC(=O)C(C)(C)Oc1ccc(Cl)cc1
[62] COc1ccc(F)cc1-c1nc(N)nc(N)n1
[63] Cc1c(C(=O)N2CCN(C3CCS(=O)(=O)C3)CC2)oc2ccc(Cl)cc12 (centres undefined)
[64] O=C(/C=C/c1c(F)cccc1Cl)Nc1nc2ccccc2[nH]1
[65] O=C(CNC(=O)c1ccccc1)OCC(=O)c1cccc2ccccc12

screen / no.,61,62,63,64,65
Vaccinia mCherry,0%,i,i,1%,24%
Vaccinia Venus,-11%,1%,-4%,2%,-13%

[66] C=CCNC(=S)NNc1ncnc2sc3c(c12)CC(C)(C)OC3
[67] CN(CC(=O)NC1CC(C)(C)NC(C)(C)C1)S(=O)(=O)c1ccc(Br)cc1
[68] CCOC(=O)C1=C(N)Oc2cc(C)n(C)c(=O)c2C1c1ccncc1 (centres undefined)
[69] Cn1nccc1C(=O)Nc1nnc(C2CC2)s1
[70] COc1ccc(NC(=O)CSc2nnnn2C)cc1S(=O)(=O)N1CCCCC1

screen / no.,66,67,68,69,70
Vaccinia mCherry,-3%,-11%,-12%,-17%,-8%
Vaccinia Venus,-17%,-2%,-3%,-17%,-12%

[71] COc1ccc(S(=O)(=O)N(C)c2ccc(C(=O)N3CCN(c4ccccc4)CC3)cc2)cc1OC
[72] CC(=O)c1cccc(-c2ccc3c(c2)C(C)(Cc2ccc(S(C)(=O)=O)cc2)C(=O)N3)c1 (centres undefined)
[73] CSC1=C(C#N)C(c2ccc(Cl)cc2)C2=C(CC(C)(C)CC2=O)N1 (centres undefined)
[74] NS(=O)(=O)c1ccc(O)c(NC(=O)c2ccc([N+](=O)[O-])cc2)c1
[75] Cc1ccc[n+](CC(=O)Nc2cc(C(F)(F)F)ccc2Cl)c1

screen / no.,71,72,73,74,75
Vaccinia mCherry,?,i,-3%,-4%,-19%
Vaccinia Venus,-28%,-10%,9%,-5%,-13%

[76] Cc1ccc(SCc2c(C(=O)N/N=C/c3ccccc3)nnn2-c2nonc2N)cc1
[77] CC(NC(=O)CCC(=O)c1ccccc1)c1ccc(F)cc1 (centres undefined)
[78] COc1ccc(N=C2NC(=O)/C(=C\c3ccco3)S2)cc1
[79] CC(=O)Nc1ccc(NC(=O)C(C)OC(=O)c2ccc(-n3cnnn3)cc2)cc1 (centres undefined)
[80] Cc1cc(NC(=O)NC(=O)c2ccccc2NC(=O)C(C)N)ccc1Oc1ncc(Br)cn1 (centres undefined)

screen / no.,76,77,78,79,80
Vaccinia mCherry,-26%,i,-21%,-6%,-22%
Vaccinia Venus,-22%,8%,-20%,5%,-29%

# Exported with two lines to a compound: part of the list above.
# Values run as follows: Vaccinia mCherry | Vaccinia Venus
(79) CC(=O)Nc1ccc(NC(=O)C(C)OC(=O)c2ccc(-n3cnnn3)cc2)cc1 (centres undefined)
    -6% | 5%
(77) CC(NC(=O)CCC(=O)c1ccccc1)c1ccc(F)cc1 (centres undefined)
    i | 8%
(80) Cc1cc(NC(=O)NC(=O)c2ccccc2NC(=O)C(C)N)ccc1Oc1ncc(Br)cn1 (centres undefined)
    -22% | -29%

# Following part
[81] CC(=O)c1c(OC(=O)c2ccc(C)cc2)c2ccccc2n1C
[82] COc1ccc(Cc2noc(CN3CCN(C4CCc5ccccc5C4)CC3)n2)cc1OC (centres undefined)
[83] CCC1CCc2sc(C(=O)N3CCCN(C)CC3)cc2C1 (centres undefined)
[84] Cc1ccc(S(=O)(=O)N2CCCCC2)cc1NC(=O)Cn1ccc(C(F)(F)F)n1
[85] Cc1cc(C)nc(SCc2nc3ccccc3n2C)n1

screen / no.,81,82,83,84,85
Vaccinia mCherry,-9%,-23%,-20%,i,-18%
Vaccinia Venus,-8%,-13%,-6%,-5%,-8%

[86] CC(=O)c1ccc(OCC(O)CNCc2ccc3c(c2)OCO3)cc1 (centres undefined)
[87] Cc1ncoc1C(=O)N1CCCC(C(=O)c2ccc(-c3ccccc3)cc2)C1 (centres undefined)
[88] Cc1ccc2c(CC(=O)Nc3ccc(S(=O)(=O)N4CCCCC4)cc3)coc2c1C
[89] CC(=O)c1nn(-c2ccccc2)c(=Nc2ccccc2)cc1C

screen / no.,86,87,88,89
Vaccinia mCherry,-8%,-13%,-4%,i
Vaccinia Venus,-5%,-20%,-9%,-1%
